Source: PubChem
Tg IFNy HTS: blocks Toxoplasma gondii growth in the presence of IFN-gamma; Toxoplasma gondii growth in IFN-gamma-treated host cells; stronger effect = lower value; reference of the scale not given here; activity change, negative = inhibition, %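 (about 20 µM by stock and volumes)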; actives 3.8% (n = 69,000); AID 1259416;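 active means below -70%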;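 further: host cells are HeLa cells infected with Toxoplasma gondii; parasite growth read as luciferase light; one replicate is shown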
* marks the source's active call; other numbers are inactive results; i = inactive; & = joins results of further samples. A portion of the library; the hit share may differ from the screen's.

# | mol | Tg IFNy HTS
1 | COc1ccc(OC)c(NC(=O)N2CCC3(CC2)Nc2cccnc2NC3=NC2CCCCC2)c1 | -11
2 | O=C(Sc1ccccc1)c1ccc2ncsc2c1 | -14
3 | CCc1ccc(NC(=O)Cn2ncc3c(N4CCCCCC4)ncnc32)cc1 | -34
4 | CCn1c(=O)c(-c2nc(-c3cc(OC)ccc3OC)no2)c(O)c2ccccc21 | 15
5 | Cc1ccc2c(c1)CCCN2C(=O)CN(C)CCc1cn[nH]c1 | 4
6 | Cc1noc(C)c1NC(=O)N1C[C@@H](O)COC[C@H]2O[C@H](CC(=O)N[C@H]3CCN(Cc4ccccc4)C3)CC[C@@H]21 | 12
7 | Nc1cc(-c2ncccc2C(=O)N2C[C@H]3CC[C@@H]2C3)c2cc[nH]c2n1 | 6
8 | Cc1ccc2c(c1)cc(C(=O)Nc1ccc(C)c(S(=O)(=O)NC(C)C)c1)n2C | -68
9 | Cn1cc(NC(=O)CN2CCCC2c2nc3ccc(F)cc3[nH]2)cn1 (stereo not drawn) | 6
10 | Cc1cnc(C(=O)N2CC[C@H](O)[C@@H]2Cc2cnn(C)c2)cn1 | 2
11 | Cn1ccnc1CN(CC1CCC(N)CC1)C1CC1 (stereo not drawn) | -5
12 | CN1CCN([C@H]2CN(C(=O)CCCc3ccccc3)C[C@@H]2O)CC1 | -4
13 | CCOc1ccc(C2c3[nH]c4ccccc4c3CCN2C(=O)c2cc(OC)c(OC)c(OC)c2)cc1 (stereo not drawn) | 247
14 | COc1ccc(C(C)NC(=O)c2ccc(NC(C)=O)c(C)c2)cc1F (stereo not drawn) | 2
15 | Cc1cccc(-c2nc(Cn3nnc(-c4nc(-c5ccccc5C)no4)c3C)c(C)o2)c1 | 7
16 | Cc1cccc(NC(=O)N2CCc3nc(-c4ccccc4)sc3C2)c1 | -6
17 | O=c1[nH]c(CSc2nnc(-c3ccncc3)n2Cc2ccco2)nc2ccccc12 | 8
18 | COc1ccc(S(=O)(=O)NCCc2sc(-c3cccc(F)c3)nc2C)cc1OC | 14
19 | COc1ccc(-n2c(=O)c(C(=O)Nc3cc(F)ccc3C)c(O)c3cccnc32)cc1 | -36
20 | CC(Cc1ccccn1)N(C)C(=O)c1cnc(C(C)(C)C)nc1 (stereo not drawn) | 25
21 | O=C(O)c1c[nH]c2ccc(Cl)cc2c1=O | 31
22 | COCCOC(=O)N1CCC(c2nn(C)c(=O)n2-c2ccccc2)CC1 | 4
23 | CCOc1ccc(CC(=O)NCCc2csc(-c3ccc(OC)cc3)n2)cc1 | i
24 | CCO[C@H]1CO[C@@]2(CCCN(C(=O)COc3ccccc3OC)C2)C1 | 58
25 | COCCn1ccnc1CN1CCc2[nH]cnc2C1c1ccccn1 (stereo not drawn) | 15
26 | O=S(=O)(c1ccc(F)cc1)N1CCCCN2[C@H](CO)[C@@H](c3ccc(-c4cncnc4)cc3)[C@@H]2C1 | -9
27 | COc1cc(C2CC(=O)c3cnn(-c4nc(C)cc(C)n4)c3C2)cc(OC)c1OC (stereo not drawn) | -21
28 | CC(=O)N(CC1=CCCN(Cc2c[nH]c(=O)[nH]c2=O)C1)C(C)C | 1
29 | O=C(C[C@@H]1CC[C@@H](NC(=O)c2ccc(F)cc2)[C@@H](CO)O1)NCCc1ccccc1 | -43
30 | C=CCN(Cc1ccc(F)cc1)C(=O)Cn1nc(C)c(C)c1C | -11

Structures from the list above containing a halogen:
# | mol | Tg IFNy HTS
9 | Cn1cc(NC(=O)CN2CCCC2c2nc3ccc(F)cc3[nH]2)cn1 (stereo not drawn) | 6
14 | COc1ccc(C(C)NC(=O)c2ccc(NC(C)=O)c(C)c2)cc1F (stereo not drawn) | 2
18 | COc1ccc(S(=O)(=O)NCCc2sc(-c3cccc(F)c3)nc2C)cc1OC | 14
19 | COc1ccc(-n2c(=O)c(C(=O)Nc3cc(F)ccc3C)c(O)c3cccnc32)cc1 | -36
21 | O=C(O)c1c[nH]c2ccc(Cl)cc2c1=O | 31
26 | O=S(=O)(c1ccc(F)cc1)N1CCCCN2[C@H](CO)[C@@H](c3ccc(-c4cncnc4)cc3)[C@@H]2C1 | -9
29 | O=C(C[C@@H]1CC[C@@H](NC(=O)c2ccc(F)cc2)[C@@H](CO)O1)NCCc1ccccc1 | -43
30 | C=CCN(Cc1ccc(F)cc1)C(=O)Cn1nc(C)c(C)c1C | -11

Additional compounds:
# | mol | Tg IFNy HTS
31 | Cc1ncoc1C(=O)N1CCCC(C(=O)c2ccc(-c3ccccc3)c(F)c2)C1 (stereo not drawn) | 22
32 | CC(C)(C)CC(C)(C)c1ccc(O)c(Cc2ccc(Cl)cc2Cl)c1 | -18&2
33 | CN(C1CCCN(c2ncccn2)CC1)S(C)(=O)=O (stereo not drawn) | 9
34 | CN(C)CCOC(=O)C1CC2=C(CCCC2(C)C)CC1C(=O)O (stereo not drawn) | 9
35 | Cc1cccc(NC(=O)Cn2c(=O)cc(C(=O)N3CCC(C)CC3)c3ccccc32)c1C | 14
36 | CC(=O)N[C@@H]1C[C@H](Cc2ccccc2)O[C@H](c2c(C)nn(C)c2Cl)C1 | -23
37 | COCC1CCC2(CCN(C(=O)c3cccc(C)c3)CC2)N1CC1CC1 (stereo not drawn) | 27
38 | CN(C)C(=O)N1CCC2(CC(=O)N(c3ccc4c(c3)OCO4)C2)C1 (stereo not drawn) | 12
39 | NC(=O)N1CCC2(C=Cc3ccccc32)CC1 | 71
40 | COCC1CN(C(=O)c2cc(C)on2)Cc2cn(CC3CC3)nc21 (stereo not drawn) | -7
41 | O=C(Nc1nonc1NC(=O)c1ccccc1)c1ccccc1 | -19
42 | CCOC(=O)C1CCN(c2ccccc2CN2CCCc3cc(C)ccc32)CC1 | 23
43 | C/C=C/c1ccccc1[C@H]1[C@H](C#N)N(C(=O)c2cccnc2)[C@H]1CO | -48
44 | O=C(Cc1ccc(F)cc1)N1CCCC1c1nc2ccccc2[nH]1 (stereo not drawn) | -4
45 | Cc1ccccc1NC(=O)CC(=O)N(C)Cc1csc(-c2ccccc2)n1 | 1
46 | COc1ccc(NS(=O)(=O)c2ccc(N)cc2)nn1 | 1&-52&2
47 | CCN1CCC2(CC1)OC(=O)C(C)=C2C(=O)Nc1ccc(C)c(C)c1 | 162
48 | O=C(Nc1ccccc1)c1cc2n(n1)CCCN(C(=O)c1cc3ncccn3n1)C2 | -8
49 | O=C1CCc2cc(NC(=O)c3ccccc3F)ccc2N1 | -11
50 | Cn1cccc1C(=O)NCc1cn2c(n1)CN(C(N)=O)CC2 | -1
51 | O=C(c1ccc2c(c1)OCO2)N1CC[C@@H]2[C@H](CO)Nc3ccc(C#Cc4ccccc4)cc3[C@@H]21 | -36
52 | Cc1cc(C(=O)N2CCn3c(C(N)=O)cnc3C2)c(-c2ccccc2)o1 | 6
53 | NC(=O)c1csc(N2CC(c3ccncc3)C2)n1 | 4
54 | Cc1cccc(OCCN2CCN(S(=O)(=O)CCN3C(=O)CCC3=O)CC2)c1C | -3
55 | Cc1nn(S(=O)(=O)c2ccccc2)c(C)c1Cc1csc2ccc(Cl)cc12 | -89*
56 | N#C[C@@H]1[C@H](c2ccccc2-c2ccccc2F)[C@@H](CO)N1C(=O)Cc1ccccc1 | 9
57 | Cc1nc(N)nc(C)c1CCC(=O)Nc1cccc(Cn2cccn2)c1 | -2
58 | O=C(COC(=O)c1ccccc1Sc1ccccc1)c1ccc(Br)cc1 | 31
59 | CCCc1cc(C(=O)N2CCN3CCN(C)C(=O)C3C2)cs1 (stereo not drawn) | 8
60 | Cc1cc(CN2C(=O)NC(C)(c3cccs3)C2=O)no1 (stereo not drawn) | 6
61 | c1ccc(-c2nc3c(c(N4CC(c5ccccn5)C4)n2)CCC3)cc1 | -2
62 | CN(Cc1ccccc1N1CCOCC1)C(=O)c1ccccc1Cn1cccn1 | 5
63 | CC(=O)c1cc2cc(Br)ccc2oc1=O | -19
64 | COc1ccc(NC(=O)N2CCCCN3[C@H](C2)[C@H](c2ccc(-c4ccccc4F)cc2)[C@@H]3CO)cc1 | 10
65 | CCN1c2ccc(C)cc2C(=O)NC12CCN(C(=O)c1ccccc1F)CC2 | 71
66 | CC(C)c1csc(NC(=O)CCC(=O)N2CC(=O)Nc3ccccc32)n1 | -5
67 | O=c1[nH]cnc2c1CCN(S(=O)(=O)c1cc3ccccc3o1)C2 | 9
68 | COc1ccc2c(c1)c(C(=O)N1CCC3(CCCN(C)C3=O)C1)c(C)n2C (stereo not drawn) | -2
69 | O=C(C[C@H]1CC[C@H](NC(=O)C2CCOCC2)[C@@H](CO)O1)NCC1CCCCC1 | 6
70 | Cc1cnn(-c2ccccc2OCC(=O)O)c1 | -48
71 | CC(C)NS(=O)(=O)c1ccc2[nH]c(=O)ccc2c1 | i
72 | Cc1ccc(S(=O)(=O)Nc2c(Cl)c(Cl)nc(C#N)c2Cl)cc1 | -93*
73 | CCCn1c(=O)c(-c2nc(-c3ccc4c(c3)OCO4)no2)c(O)c2ccccc21 | 109
74 | COc1ccc(C(=O)CCN2CCc3cc(OC)c(OC)cc3C2)cc1 | -17
75 | CC(C)c1nnsc1CN1CCCC1c1ccc(F)cc1 (stereo not drawn) | -16
76 | COc1ccccc1-c1cccc(C(=O)N(Cc2cnn(C)c2)C2CC2)c1 | -13
77 | CC1=C(C(=O)Nc2ccc(Cc3ccncc3)cc2)C2(CCN(Cc3ccccc3)CC2)OC1=O | 23
78 | Cc1cc(C)n(CCCN(C)Cc2cccc3c2OCO3)n1 | -1
79 | CCn1ccc(C(=O)N2Cc3cnc(C(C)(C)C)nc3C2)cc1=O | 0
80 | Cc1ccc(NC(=O)c2ccc(-n3cnnc3)cc2)cc1S(=O)(=O)NC(C)C | 13

Remaining list, next part:
# | mol | Tg IFNy HTS
81 | CC(=O)NCCc1csc(C2CCCN(C(=O)c3ccc(F)c(Cl)c3)C2)n1 (stereo not drawn) | 14
82 | CCCn1c(=O)c(-c2nc(-c3ccccc3Cl)no2)c(O)c2ccccc21 | -27
83 | COc1cccc(CNC(=O)c2ccc(-c3nc(CN4CCN(c5ccccc5)CC4)c(C)o3)cc2)c1 | -27
84 | CCOc1ccc(-c2nc(Cn3nnc(C(=O)Nc4cccc(Cl)c4)c3C)c(C)o2)cc1OC | 89
85 | CCN1CC2CN(C(=O)c3ccncc3)CCC2(c2ccccc2)C1 (stereo not drawn) | 14
86 | COc1ccc(Nc2ccn(-c3ccccc3)n2)cc1 | i
87 | O=C(CC1COCCN1)N1CCN(c2ncccn2)CC1 (stereo not drawn) | -5
88 | CCOc1ccc(-c2nc3c(s2)CN(S(=O)(=O)c2ccccc2C)CC3)cc1 | -94*
89 | C[C@@H]1CN([C@@H](C)CO)C(=O)c2cc(NC(=O)Nc3ccccc3)ccc2O[C@@H](C)CCCCO[C@@H]1CN(C)C(=O)Nc1ccccc1 | 66
90 | CC(CN(C)C)C(C)(O)Cc1ccc(Cl)cc1 (stereo not drawn) | 4
91 | COc1ccc(-n2c(CCCN3CCOCC3)n[nH]c2=O)cc1 | 18
92 | CCc1noc(CC)c1C(=O)N1CCC(c2cc3ncccc3c(=O)[nH]2)C1 (stereo not drawn) | 21
93 | CNC[C@H]1OCCCC[C@H](C)Oc2ccc(NC(=O)Nc3ccc(OC)cc3)cc2C(=O)N([C@H](C)CO)C[C@@H]1C | 161
94 | CC(C)(C)N1CC(C(=O)NCc2cccc(N3CCCCC3)c2)CC1=O (stereo not drawn) | 4
95 | O=C(Cc1ccccc1)N1CCC2(CC(=O)N(c3ccccc3)C2)C1 (stereo not drawn) | -10
96 | O=C(NCc1ccco1)[C@H]1CC[C@H]2[C@H](CCN2Cc2ccco2)O1 | 2
97 | Cc1cc(C)c2[nH]c(C)c(CC(=O)N(C)C(C)c3ccon3)c2c1 (stereo not drawn) | 15
98 | O=C(CN1CCOc2ccccc2C1)NCCc1n[nH]c2c1CCCC2 | -37
99 | O=C1CN(c2ncnc3c2CCNC3)CCN1Cc1ccc2c(c1)OCO2 | -4
100 | FC(F)(F)CCc1ccnc(NCC2COc3ccccc3O2)n1 (stereo not drawn) | -9
101 | COc1ccc2oc(=O)cc(CN(Cc3cccs3)C3CCCCC3)c2c1 | 11
102 | O=C(Nc1ccccc1)Nc1ccc(-n2ccc(C(F)(F)F)n2)cc1 | -81*
103 | Cc1[nH]c2ccc(CNC(=O)C(c3cccnc3)N3CCOCC3)cc2c1C (stereo not drawn) | -3
104 | CCn1c(CC2CCN(Cc3ccc4nonc4c3)CC2)nn(C)c1=O | 4
105 | CC(=O)NC(c1ccccn1)C1CCC(CNC(=O)c2cnn(C(C)C)c2)CC1 (stereo not drawn) | 9
106 | COc1ccc2c3c([nH]c2c1)[C@H](CO)N(S(C)(=O)=O)CC31CCN(C(=O)Nc2ccccc2)CC1 | -35
107 | COc1cnc(C2(O)CCN(C(=O)c3cscn3)CC2)c(OC)n1 | -4
108 | Fc1ccc(CN2CCc3ncnc(N4CCCC4)c3CC2)cc1 | -48
109 | COc1ccccc1OC1CN(Cc2cccc(OC)c2O)C1 | -4
110 | CCS(=O)(=O)N1CCC2(CC1)OC(=O)C(C)=C2C(=O)Nc1ccc(C)c(C)c1 | 60
111 | CC(C)Cn1c(=S)[nH]c2cc(C(=O)O)ccc2c1=O | -16
112 | Cc1ccc(S(=O)(=O)N(C)c2cncc(C(=O)Nc3ccccc3Br)c2)cc1 | 11
113 | COc1ccc2c3c([nH]c2c1)[C@@H](CO)N(C(=O)NC(C)C)CC31CCN(C(=O)c2cnccn2)CC1 | 10
114 | Cc1ccc(NC(=O)Cn2ncc3c(N4CCC(C)CC4)ncnc32)c(C)c1 | 15
115 | OC[C@H]1NC[C@@H](O)[C@@H](O)[C@@H]1O | 14
116 | N#C[C@@H]1[C@@H](c2ccccc2-c2ccccc2F)[C@@H](CO)N1C(=O)Cc1ccccc1 | -36
117 | O=C(NCC[C@H]1CC[C@H](NC(=O)C2CCOCC2)[C@@H](CO)O1)c1cc(Cl)cc(Cl)c1 | 32
118 | CC(C)(C)[S@](=O)N1Cc2cc(C(=O)NCCc3ccncc3)nc(-c3cccc(-c4cccc(C#N)c4)c3)c2[C@@H]1CCO | -23
119 | COC(=O)c1cc2n(n1)CCN(C(=O)c1csc(CN(C)C)n1)C2 | 22
120 | Cc1ccc(NC(=O)CN2C(=O)CCc3cc(Br)ccc32)cc1N(C)C | i
121 | NC1(C#Cc2cncc(C(=O)N3CCOCC3)c2)CCCCC1 | -10
